Beta cell apopt = blocks beta cell apoptosis; INS-1E cytokine-induced death, ATP luminescence, 48 h; percent of positive-control rescue, neutral wells zero; protection from apoptosis, % (test concentration not listed); 300,000 compounds, 0.8% hits;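 active = all replicates at 75% or more, or half of them and the mean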;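 note: 0% = cytokine-treated negative control wells and 100% = positive control rescue; higher means more ATP so stronger rescue from cytokine killing; wells of about 40 µL received 100 nL stock; the first replicate is given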
E coli growth = blocks Escherichia coli growth; OD600, 23 h; active compounds read low; 330,000 compounds, 0.21% hits; OD600 absorbance (no concentration beside the values);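 active = OD600 absorbance below the run mean of sample wells minus 3.6 SD, in any replicate, cut at about 0.56 in these data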;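 note: stock transfer was 300 nL into about 60 µL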
FGF22 binding = binders of recombinant human FGF22 by thermal shift; calls only at 9.99 µM; 340,000 compounds, 1.5% hits; AID 651658; SYPRO orange fluorescence; percent of sucrose octasulfate shift, DMSO zero;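 active = melting point raised past a set limit in the mean and every replicate; three in four hits are not shown here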
Target sequence (Q9HCT0 whole entry, looked up): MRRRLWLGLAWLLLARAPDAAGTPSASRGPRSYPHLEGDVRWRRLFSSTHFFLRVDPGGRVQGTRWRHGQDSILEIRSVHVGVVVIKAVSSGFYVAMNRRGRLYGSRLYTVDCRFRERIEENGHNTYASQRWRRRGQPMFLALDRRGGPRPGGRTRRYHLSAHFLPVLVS
T cruzi repl = T. cruzi replication inhibition | T. cruzi beta-gal in NIH3T3, luminescence, 90 h | 300,000 compounds, 1.4% hits | inhibition, % (test concentration not listed);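 active = mean inhibition across valid replicates above about 55%, limit read from the data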;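 note: signal also drops with host cell toxicity which is not excluded here; 0% = plate median of DMSO wells and 100% = zero luminescence signal; higher percent means less beta-gal luminescence so fewer parasites; stock transfer was 50 nL into about 50 µL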
UCH37 inh = blocks the human deubiquitinase UCH37; Q9Y5K5; purified proteasome/UCH37, Ub-AMC cleavage fluorescence; inhibition, % (concentration not given with the values); 330,000 compounds, 0.33% hits; AID 588478;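 active = mean of two replicates above 20%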;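 note: 0% = compound-free wells with enzyme and 100% = wells lacking proteasome; stock transfer was 100 nL into about 20 µL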
Target sequence (Q9Y5K5 whole entry, looked up): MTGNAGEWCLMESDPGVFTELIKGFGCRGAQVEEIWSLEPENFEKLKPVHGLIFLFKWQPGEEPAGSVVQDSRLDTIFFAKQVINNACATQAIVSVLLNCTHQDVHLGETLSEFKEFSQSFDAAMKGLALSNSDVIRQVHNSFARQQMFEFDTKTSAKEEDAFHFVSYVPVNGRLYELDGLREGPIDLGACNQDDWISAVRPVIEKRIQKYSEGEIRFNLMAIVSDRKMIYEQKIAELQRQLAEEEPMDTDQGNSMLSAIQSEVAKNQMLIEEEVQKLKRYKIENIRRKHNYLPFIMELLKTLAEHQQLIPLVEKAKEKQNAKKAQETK
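Material: Human UCH37 enzyme supplied as purified proteasome complex | Schedule: 30 min preincubation with enzyme, 25 min cleavage at room temperature | Detection: AMC fluorescence 355/460 nm | Measure: % inhibition of Ub-AMC cleavage fluorescence | Controls: Wells without proteasome as full block, compound-free enzyme plus substrate as uninhibited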
MLL AF4-AF9 inh = inhibitors of human MLL-AF4/AF9 interaction | P42568 | AlphaScreen, biotin-AF4 peptide binding to FLAG-AF9 | inhibition, % at 10 µM | 350,000 compounds, 0.47% hits;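 active = every replicate reaching a set inhibition limit, whatever the replicate mean, cut at about 25% in these data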;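 note: 0% = plate neutral control median and 100% = total signal loss; the record names both 10 and 1 µM as test concentration; the first replicate is given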
Target sequence (P42568 whole entry, looked up): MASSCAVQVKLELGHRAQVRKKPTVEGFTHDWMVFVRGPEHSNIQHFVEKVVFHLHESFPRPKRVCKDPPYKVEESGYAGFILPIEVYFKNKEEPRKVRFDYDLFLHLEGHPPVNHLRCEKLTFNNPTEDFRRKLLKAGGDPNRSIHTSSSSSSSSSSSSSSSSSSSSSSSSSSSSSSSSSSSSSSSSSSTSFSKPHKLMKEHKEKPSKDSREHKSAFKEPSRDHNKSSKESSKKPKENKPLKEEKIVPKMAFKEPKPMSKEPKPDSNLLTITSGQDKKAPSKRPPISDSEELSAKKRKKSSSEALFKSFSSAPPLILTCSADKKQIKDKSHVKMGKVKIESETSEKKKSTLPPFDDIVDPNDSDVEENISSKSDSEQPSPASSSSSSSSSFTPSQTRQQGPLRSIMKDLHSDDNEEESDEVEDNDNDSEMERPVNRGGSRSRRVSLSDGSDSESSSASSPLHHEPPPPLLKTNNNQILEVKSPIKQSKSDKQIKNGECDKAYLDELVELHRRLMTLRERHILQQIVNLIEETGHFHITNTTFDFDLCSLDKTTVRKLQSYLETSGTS
rRNA inh HTS = inhibitors of bacterial rRNA selective over humanized ribosomes. GFP signal change (wild-type ribosome), % (test concentration not listed). 350,000 compounds, 1.6% hits. E. coli WT GFP vs humanized-ribosome RFP mutants, fluorescence, 24 h; active compounds read low; DMSO median 0, no signal -100. AID 720706;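 active = significant combined selectivity score with lowered wild-type GFP, culture density cut under 30%, mutant RFP and density less affected; inactive = any of these conditions unmet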; note: one replicate is shown; some compounds called inactive have numbers as strong as hits
A1 inh = inhibitors of the anti-apoptotic protein A1, read as caspase activation | MEF A1-2A-BIM cells, Caspase-Glo 3/7 luminescence, 3 h; percent of clofoctol response, vehicle zero | caspase activation, % (test concentration not listed) | 330,000 compounds, 0.066% hits | AID 2462;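 active = over half of replicate activation scores above 10%, or exactly half above 10 with the replicate mean above 10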;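 note: wells of about 30 µL received 50 nL stock; many hits fall short of the cut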
rRNA inh HTS OD600 = recorded beside rRNA inh HTS, whose call it bears; OD600 change, %; measured here: OD600 growth;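 optical density of the mix in the first replicate; 0 = DMSO median and -100 = no signal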
rRNA inh HTS RFP = recorded beside rRNA inh HTS, whose call it bears; RFP signal change, %; measured here: RFP humanized mutant strains;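 first replicate; 0 = DMSO median and -100 = no signal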
* hit, by the source's call; i = inactive; . = no result given; & = joins results of further samples. An excerpt; rates above refer to the full screens.

SMILES	Beta cell apopt	E coli growth	FGF22 binding	T cruzi repl	UCH37 inh	MLL AF4-AF9 inh	rRNA inh HTS	rRNA inh HTS OD600	rRNA inh HTS RFP	A1 inh
O=[N+]([O-])c1cc([N+](=O)[O-])c(Oc2cc(Cl)cc(Cl)c2)cc1NN1CCCCC1	-2	0.73	i	.	4.4	1.9	3	3	-0.2	-0.1
O=C(COC(=O)c1ccc2ncsc2c1)NC(=O)NCc1ccccc1	4	0.64	i	-22	0.1	1.2	9	11	-2.3	0.4
CC(=Nc1ccc(C)c(C)c1)C1=C(O)CCC1=O	-1	0.75	.	-26	5.2	.	.	.	.	0.4
CCC(=O)Nc1c2c(nn1-c1ccccc1)CSC2	-5	0.73	i	-8	-2.1	4.6	24	15	2.5	-0.1
Cc1csc(NC(=O)c2ccco2)n1	-3	0.7	.	-11	-1.7	.	.	.	.	-0.5
Cc1nn(C)c(C)c1CNC(=O)/C=C/c1ccccc1F	0	.	.	-5	-0.5	.	.	.	.	0.8
CSc1cccc(NC(C)=O)c1	-1	0.67	.	-1	1.1	.	.	.	.	0.6
COc1ccc2cc(C(=O)NCc3ccco3)c(=O)oc2c1	-5	0.66	.	6	-105	.	.	.	.	0.4
C=CCC1(C#N)C(=S)NC2=C(C(=O)CC(C)(C)C2)C1c1ccc(Br)cc1 (stereo not given)	-11	0.67	i	9	-0.7	3.1	1	-1	-1.9	0.0
O=C1NC2c3ccccc3CC2O1 (stereo not given)	-2	0.67	i	-19	0.5	-6.0	3	11	-8.2	0.6
O=C(O)c1sccc1NC(=O)c1c(Cl)cccc1Cl	-1	0.66	i	1	1.0	-43	-17	-22	-6.3	0.4
COc1ccc(NC(=O)CN(C)S(=O)(=O)c2ccc(Br)s2)cc1	1	0.62	i	-6	0.9	1.9	4	6	-0.2	-0.4
COc1cc(OC)c(Nc2cc(C)nc3nc(C)nn23)cc1Cl	-2	0.74	.	-10	7.0	1.6	-5	-7	-1.7	-0.9
Cc1[nH]n(-c2ccccc2)c(=O)c1/C=N/NC(=O)C(C)C	16	.	.	-14	.	0.5	-15	-13	4.0	1.3
CC(C)c1ccc(C2C(C(=O)c3ccco3)=C(O)C(=O)N2CC2CCCO2)cc1 (stereo not given)	-1	0.69	i	9	5.3	2.8	-3	-1	0.0	1.1
COc1ccc(OC)c(NC(=O)c2cnc(Nc3ccccc3OC)c3ccccc23)c1	16	0.72	.	-16	-60	.	.	.	.	-0.3
Cc1ncc([N+](=O)[O-])n1CC(=O)NCCc1ccccc1	-3	0.61	i	0	-0.4	-4.6	-5	-23	7.2	1.0
COc1ccc(-c2noc(CCCOc3ccc(Cl)cc3Cl)n2)cc1	-7	0.74	.	2	2.0	.	.	.	.	0.4
CCOc1ccc(NC(=O)Cn2sc3nc(C)cc(C)c3c2=O)cc1	4	0.68	.	50	5.9	.	.	.	.	0.7
COc1ccc(-n2nc(C(=O)N3CCCCC3)c3ccccc3c2=O)cc1	-5	0.7	.	.	-1.0	.	.	.	.	0.3
N#CCCn1cc(C(CC(=O)c2ccccc2)C(=O)O)c2ccccc21 (stereo not given)	-3	0.74	.	-19	1.4	.	.	.	.	2.1
COc1cccc(OC)c1C(=O)Nc1ccnn1C	.	0.67	.	-14	0.8	.	.	.	.	0.0
Nc1nc2c(ccc3ccccc32)s1	.	0.6	i	7	-14	3.1	-1	7	1.6	-0.4
CS(=O)(=O)N(Cc1ccccc1)c1ccc(C(=O)NCc2ccccc2)cc1	7	0.75	.	-18	-1.7	.	.	.	.	-0.3
CCOC(=O)CSc1ncc(OC)c(=O)[nH]1	-4	0.69	.	-14	0.8	.	.	.	.	0.5

Grouped by structure, the entries above with a furan ring, fused or not.
SMILES	Beta cell apopt	E coli growth	FGF22 binding	T cruzi repl	UCH37 inh	MLL AF4-AF9 inh	rRNA inh HTS	rRNA inh HTS OD600	rRNA inh HTS RFP	A1 inh
Cc1csc(NC(=O)c2ccco2)n1	-3	0.7	.	-11	-1.7	.	.	.	.	-0.5
COc1ccc2cc(C(=O)NCc3ccco3)c(=O)oc2c1	-5	0.66	.	6	-105	.	.	.	.	0.4
CC(C)c1ccc(C2C(C(=O)c3ccco3)=C(O)C(=O)N2CC2CCCO2)cc1 (stereo not given)	-1	0.69	i	9	5.3	2.8	-3	-1	0.0	1.1

The listing continues.
SMILES	Beta cell apopt	E coli growth	FGF22 binding	T cruzi repl	UCH37 inh	MLL AF4-AF9 inh	rRNA inh HTS	rRNA inh HTS OD600	rRNA inh HTS RFP	A1 inh
Cc1ccc(S(=O)(=O)Nc2ccc(S(=O)(=O)NC(C)(C)C)cc2)cc1	-14	0.68	.	1	1.9	.	.	.	.	1.4
Cc1cccc(NC(=O)C2CCCN(S(=O)(=O)c3ccc4[nH]c(=O)ccc4c3)C2)c1 (stereo not given)	-1	0.72	i	2	-1.5	-1.1	10	16	2.0	0.6
CC(C(=O)Nc1cc([N+](=O)[O-])ccc1Cl)N1CCN(c2ccccc2)CC1 (stereo not given)	-6	0.76	.	-26	3.8	0.2	9	8	-1.5	-0.6
O=C(OCC(=O)N1CCN(C(=O)c2ccco2)CC1)c1ccccc1C(=O)c1ccccc1	0	0.71	.	15	1.2	.	.	.	.	-0.5
CC(C)(C)c1ccc(NC(=O)N2CCCN(c3c(Cl)cncc3Cl)CC2)cc1	3	0.68	i	13	1.6	.	-4	-17	-1.8	-0.1
N/C(=N\OC(=O)c1ccc(Cl)c(Cl)c1)c1ccccn1	2	0.62	.	-6	-1.0	.	.	.	.	-14
Fc1ccccc1Sc1ccccc1CNC1=NCCN1	.	0.63	.	41	5.6	.	.	.	.	-0.9
CC(C)CC(=O)Nc1ccc2oc(-c3ccncc3)nc2c1	3	0.72	.	-12	-14	1.8	.	.	.	-0.9
CN(C(=O)CSC1=NC2C(N=N1)c1cc(Br)ccc1N2C)C1CCCCC1 (stereo not given)	4	0.68	i	0	5.7	-1.6	14	6	-3.0	0.2
Cc1noc(C)c1CCC(=O)N1CCCC(CCC(=O)NCc2ccccc2F)C1 (stereo not given)	3	0.67	i	9	1.2	-1.0	11	10	-0.6	0.2
COC(=O)[C@@]1(Cc2ccc(F)cc2)[C@H]2c3cc(C(=O)N(C)C)n(Cc4ccccc4)c3C[C@H]2CN1C(=O)c1ccccc1	10	.	i	.	-4.1	10	-4	1	-0.2	-1.5
NS(=O)(=O)c1ccc(Nc2ccccc2)c([N+](=O)[O-])c1	-4	0.69	i	5	7.7	2.6	-2	2	2.0	0.6
O=C(O)C1C2CCC(O2)C1C(=O)Nc1ccc(Cl)cc1F (stereo not given)	1	.	i	4	.	-1.8	-1	-2	-5.6	-0.2
O=C(CN1C(=O)NC2(CCCC2)C1=O)Nc1ccc(C(F)(F)F)cc1	-2	0.59	i	-4	3.1	1.6	-5	-2	-1.7	0.1
C#CCNC(=O)c1ccc(OCc2ccccc2)cc1Cl	8	0.66	i	-14	-1.1	-2.4	-1	3	-1.3	-0.5
COc1ccc(/C=N\NC(=O)c2ccc([N+](=O)[O-])c(C)c2)cc1COc1ccccc1C(N)=O	-9	.	i	14	.	-12	7	11	-1.1	-0.2
Cc1cccc(C)c1NC(=O)Cn1c(=O)n(CCCC(=O)NC2CCN(Cc3ccccc3)CC2)c(=O)c2ccccc21	2	0.69	i	25	1.2	-1.1	8	7	0.1	0.4
O=C(c1ccccc1C(=O)N1CCN(c2ccc(F)cc2)CC1)N1CCN(c2ccc(F)cc2)CC1	-7	0.64	.	6	5.2	.	.	.	.	0.7
COc1ccccc1C(=O)NCCC(=O)OCC(=O)Nc1ccc(S(N)(=O)=O)cc1	2	0.66	i	.	5.2	4.4	3	9	-0.9	0.1
CN(C)CCCN(C(=O)c1cc2ccccc2oc1=O)c1nc2c(F)cccc2s1	-9	0.68	.	56*	8.1	.	.	.	.	0.0
COc1cc(Cl)cc(C=O)c1OCC(=O)O	-3	0.69	i	-7	-1.1	-2.4	8	9	-2.1	0.5
COC(=O)c1cc2ccccc2c(=O)s1	-2	0.73	.	-18	-19	.	.	.	.	0.2
COCCCNC(=O)Cn1ccc(NC(=O)OCc2ccccc2)nc1=O	-9	0.75	i	.	-1.4	-5.0	5	4	-2.6	-0.1
Cc1ccc(-c2nc(CSCC(=O)NC3CCN(Cc4ccccc4)CC3)c(C)o2)cc1	.	0.72	i	8	5.0	8.3	-2	0	2.0	0.3
COc1cc(/C=C2/SC(=S)N(C)C2=O)ccc1OC(=O)c1ccco1	-4	0.72	i	0	1.1	1.4	2	4	-0.1	-4.0

Sorted by heavy-atom count (highest first): part of the list above.
SMILES	Beta cell apopt	E coli growth	FGF22 binding	T cruzi repl	UCH37 inh	MLL AF4-AF9 inh	rRNA inh HTS	rRNA inh HTS OD600	rRNA inh HTS RFP	A1 inh
Cc1noc(C)c1CCC(=O)N1CCCC(CCC(=O)NCc2ccccc2F)C1 (stereo not given)	3	0.67	i	9	1.2	-1.0	11	10	-0.6	0.2
Fc1ccccc1Sc1ccccc1CNC1=NCCN1	.	0.63	.	41	5.6	.	.	.	.	-0.9
COC(=O)c1cc2ccccc2c(=O)s1	-2	0.73	.	-18	-19	.	.	.	.	0.2

The listing picks up with the two entries that preceded the break.
SMILES	Beta cell apopt	E coli growth	FGF22 binding	T cruzi repl	UCH37 inh	MLL AF4-AF9 inh	rRNA inh HTS	rRNA inh HTS OD600	rRNA inh HTS RFP	A1 inh
Cc1ccc(-c2nc(CSCC(=O)NC3CCN(Cc4ccccc4)CC3)c(C)o2)cc1	.	0.72	i	8	5.0	8.3	-2	0	2.0	0.3
COc1cc(/C=C2/SC(=S)N(C)C2=O)ccc1OC(=O)c1ccco1	-4	0.72	i	0	1.1	1.4	2	4	-0.1	-4.0
CC(=O)C1=C(O)C(=O)N(c2ccc(Br)cc2)C1c1ccc(Cl)cc1 (stereo not given)	7	0.69	i	-4	-1.4	-15	-50	-74	-15	0.3
CC(C)(C)NC(=O)NC(=O)CSc1cccc(C(F)(F)F)c1	3	0.69	i	-1	0.8	-0.9	-8	-9	-2.3	-0.1
O=C(CCC(=O)N1CCOc2ccc(Cl)cc21)NCCCN1CCOCC1	-2	0.75	i	-6	4.4	-6.8	-2	0	3.8	-0.1
Cc1csc(SCc2nnc(-c3ccccc3Br)o2)n1	-2	0.64	.	35	1.8	.	.	.	.	-0.4
O=C(CN1CCNCC1)Nc1ccccc1Cl	-2	0.74	.	11	4.2	.	.	.	.	-0.2
Oc1nc(Nc2ccc(Cl)cc2Cl)sc1/C=C1\C=Nc2ccccc21	.	0.73	i	6	3.7	0.5	.	.	.	-0.7
CCO[C@H]1OC(C(=O)N2CCN(Cc3ccc4c(c3)OCO4)CC2)=C[C@@H](c2cn(C(C)=O)c3ccccc23)[C@@H]1CCCO	-4	.	i	7	5.7	7.2&7.2	-2	-4	3.5	0.3
O=C(O)C1C2CCC(O2)C1C(=O)Nc1ccccc1Br (stereo not given)	0	0.7	i	-7	-1.4	0.9	1	3	-0.3	0.0
CCOc1cc(C#N)c(NC(=O)Cn2nnc3ccccc32)cc1OCC	-7	0.75	.	-26	0.8	.	.	.	.	0.0
NC(=O)COc1cc2oc(=O)c3c(c2cc1Cl)CCCC3	-4	0.71	i	-2	-42	-1.1	-14	-14	-2.9	-0.1
CCOC(=O)N1CCN(C(=O)CSc2nnc(-c3cccc(OC)c3)o2)CC1	-1	0.78	.	.	4.2	.	.	.	.	0.6
CSCCCN1CCCC(CO)(Cc2ccc(F)cc2)C1 (stereo not given)	.	0.64	i	1	1.0	6.4	0	4	-1.3	0.7
